Autofluor counter = compound fluorescence in toxin protease inhibitor counterscreen; compound autofluorescence counterscreen, microsphere flow cytometry; stronger effect = higher value; fluorescence intensity (no concentration beside the values); actives 3.1% (n = 360,000);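 active means at least 3 SD above the mean of all compounds, about 16000 in these data; inconclusive means too few beads counted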;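 further: 100 nL of 1 mM stock went into each well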
Sa RN4220 lethal = S. aureus RN4220 growth inhibition; OD600, 16 h; inhibition, % (test concentration not listed); actives 0.33% (n = 330,000);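 active means z-score of -3 or lower and OD600 up to 0.18 on both plates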;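 further: plate controls were untreated cells for no effect and reference antibiotic for full effect; stock transfer was 100 nL into about 80 µL; one replicate is shown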
ugtP null kill = growth inhibition of S. aureus ugtP deletion strain; AID 1259309; actives 0.54% (n = 330,000); S. aureus RN4220 ugtP deletion, OD600 growth, 16 h; some inactives read as strong as hits; growth inhibition, % (concentration not given with the values);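 active means z-score under -3 and OD600 up to 0.15 on both plates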;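 further: plate controls were untreated wells for no effect and antibiotic for full effect; wells of about 80 µL received 100 nL stock; the first replicate is given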
PrP UTR inh = inhibition of PrP 5' UTR reporter expression | cell-based PrP 5' UTR mRNA reporter, plate reader | inhibition, % (no concentration beside the values) | actives 0.35% (n = 340,000);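 active means every replicate at 50% or more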;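 further: 0 = median of the neutral control wells; tested in H4 reporter cells; numbers are from one replicate; inactives centre near -14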
BJeLR viability = BJeLR cell viability loss; BJeLR (HRASV12) viability, CellTiter-Glo ATP luminescence, 48 h; reference of the scale not given here; inhibition, % (no concentration beside the values); AID 1554; actives 0.17% (n = 300,000);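 active means replicate mean above 50%; inconclusive means above 50% but judged a plate artefact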;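 further: 50 nL library stock added to about 25 µL; numbers are from one replicate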
Mtb hypoxia inh = Mtb hypoxia fluorescent reporter inhibition; M. tuberculosis hypoxia-regulated fluorescent reporter, fluorescence; AID 1159583; actives 0.1% (n = 300,000); fluorescence inhibition, % (concentration not given with the values);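 active means 35 to 45% if threefold the growth effect, above 45% if 1.5-fold the growth effect; inactive means the rest, general growth blockers included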;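 further: wells of about 50 µL received 100 nL stock; 0% = vehicle wells and 100% = reference inhibitor wells; whole bacteria with a GFP reporter of the hypoxia response; strong numbers were not always called active; many hits fall short of the cut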
Mtb hypoxia inh growth = further read-out of Mtb hypoxia inh, marked with its call; growth inhibition, %; measured here: M. tuberculosis growth (absorbance);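 0% = vehicle and 100% = reference antibiotic; read after six days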
* hit, by the source's call; u = inconclusive; x = not tested or not shown.

SMILES	Autofluor counter	Sa RN4220 lethal	ugtP null kill	PrP UTR inh	BJeLR viability	Mtb hypoxia inh	Mtb hypoxia inh growth
COc1ccc(-c2nc3ccc(C)cn3c2NCc2ccc3c(c2)OCO3)cc1	2634	0.6	3	-31	1	-8	-23
CCCN(CC(=O)Nc1ccc(F)c(F)c1F)C(=O)C1CC(=O)N(Cc2ccccc2)C1 (configuration not stated)	4115	3.1	7	-10	3	3	-4
COc1ccc(C(C)NC(=O)Nc2ccc(C(C)=O)cc2)cc1OC (configuration not stated)	5788	-0.5	-2	-6	7	0	6
COc1ccc(C(C[N+](=O)[O-])c2c(C)cc3ccccn23)c(OC)c1 (configuration not stated)	4748	6.8	-5	-17	2	3	15
O=C(COC(=O)c1ccc([N+](=O)[O-])o1)NCCCc1ccccc1	8586	9.3	8	-3	x	x	x
COc1ccc(NC(=O)c2oc3ccccc3c2NC(=O)C2CC2)cc1	20675*	0.3	-4	-21	1	-2	-6
CC(=O)Nc1cccc(C(=O)OCC(=O)NNC(=O)c2ccc([N+](=O)[O-])cc2)c1	u	1.8	3	-16	-1	5	-6
COc1ccc(S(=O)(=O)N2CCOCC2)cc1NC(=O)c1cccc(-n2cccc2)c1	5972	3.4	-5	-24	2	11	0
O=C(OCc1nnc(-c2ccc(Br)cc2)o1)c1ccco1	4970	-0.5	-4	-11	2	-1	-4
COc1ccccc1C(=O)NN=C(C)CC(=O)Nc1ccc(Cl)cn1	x	5.8	5	x	x	-1	2
CCN(CC)S(=O)(=O)c1ccc(NC2c3ccccc3C(=O)N2c2ccc(C)cn2)cc1 (configuration not stated)	4421	-5.0	-4	-26	-2	3	7
COc1ccc(CN2CCC(N3CC(C)OC(C)C3)CC2)c(OC)c1 (configuration not stated)	4151	3.3	4	-1	-3	11	-1
CCSc1ccccc1C(=O)N1CCN(c2ccccc2F)CC1	11392	1.5	1	-34	-14	13	12
O=C(Nc1nc(-c2ccccc2)c(-c2ccccc2)s1)c1ccc(S(=O)(=O)N2CCCCC2)cc1	11466	-5.2	23	-6	-14	1	-2
O=C(CSC(=S)N1CCOCC1)N1N=CCC1c1ccccc1 (configuration not stated)	5929	-2.8	-7	-28	-2	-9	6
COC(=O)[C@H]1[C@H]2C[C@H]3c4[nH]c5ccccc5c4CCN3C[C@H]2CC[C@@H]1O	5214	x	x	-12	4	x	x
C=CCNC(=O)CC(=O)N/N=C/c1cccc(Br)c1	7169	x	x	-19	2	x	x
CN(/N=C/c1c[nH]c2ccccc12)c1cnn(-c2ccc(F)c(Cl)c2)c(=O)c1Cl	20923*	x	x	-20	-8	x	x
O=C1c2ccccc2C(=O)C1c1ccc(Br)cc1	3639	3.7	1	-49	7	8	-4
CSc1ccc(Cl)c(C(=O)N2CCN(CC(=O)N3CCCC3)CC2)c1	8191	2.2	3	-3	x	-3	6
Cc1cccc(NC(=O)CCN2C(=O)c3ccccc3C2=O)c1	3345	1.2	6	7	-12	-2	-7
Cc1cc(=O)n2[nH]c(-c3ccco3)nc2n1	6348	3.2	2	-22	-7	4	-6
O=C(Nc1cc(Cl)ccc1O)C1CC(c2ccccc2Cl)=NO1 (configuration not stated)	4447	3.6	-27	-22	-1	10	5
CCOc1ccc(NC(=O)c2cnccn2)cc1	4566	0.2	3	-24	1	x	x
CC[n+]1c(/C=C(/C)SC)sc2ccccc21	9503	x	x	-31	4	x	x
Next records:
SMILES	Autofluor counter	Sa RN4220 lethal	ugtP null kill	PrP UTR inh	BJeLR viability	Mtb hypoxia inh	Mtb hypoxia inh growth
COc1cc(/C=C/C(=O)O)cc(S(=O)(=O)Nc2ccccc2SC)c1OC	2656	x	x	-10	-16	x	x
COc1ccc(-c2noc(CN3CCN(c4ccccc4F)CC3)n2)cc1OC	3755	-3.4	-1	-7	0	x	x
COc1ccc(-c2nc(N)nc(C)c2Oc2ccccc2Br)c(O)c1	4589	-15	-8	-18	x	x	x
COc1ccc(OCC(=O)N2CCN(C(=O)c3ccc(F)cc3)CC2)cc1	4867	-3.2	-3	0	-6	-1	-2
CC1CCCC(C)N1C(=O)COC(=O)c1ccco1 (configuration not stated)	3876	1.8	9	-24	x	2	4
CN(C)CCCNC(=O)C[C@H]1C[C@H](C(=O)N2CCCCC2)[C@@]2(C)c3[nH]c4cc(CCC(=O)N(C)C)ccc4c3CCN2C1=O	4034	1.2	6	-8	x	-3	-1
COc1nc2ccccc2nc1OC	5663	5.4	11	0	2	5	10
CCN(Cc1ccc(OC)c(F)c1)C(=O)/C=C/c1ccc(S(=O)(=O)N2CCOCC2)cc1	6496	0.8	6	-6	x	3	-3
O=C1CC(C(=O)Nc2ccccc2C(=O)O)C(c2ccccc2)O1 (configuration not stated)	2646	1.0	-4	2	-11	x	x
c1ccc2c(c1)nc(-c1ccncc1)n2CCNc1nc(CN2CCCCC2)cs1	3708	3.0	-4	-19	-1	3	-1
Cn1c(=NC(=O)CCl)sc2ccccc21	10857	6.6	7	-33	-14	19	19
Cc1ccc(NC(=O)Cc2ccccc2)cc1S(=O)(=O)N1CCOCC1	5810	2.8	4	-3	x	-5	2
COc1ccccc1CNC(=O)CCc1nnc2ccc(NCCCN3CCCC3=O)nn12	5777	6.7	7	1	4	17	8
N#CC1=C(N)Oc2cc(O)c(Cl)cc2C1c1ccccc1F (configuration not stated)	4406	x	x	-27	-9	x	x
CCOC(=O)N1CCN(C(=O)Cn2nc(C)n3nc(-c4ccc(CC)cc4)cc3c2=O)CC1	4305	1.4	-1	-1	-7	-5	0
CC(/C=C1\SC(=S)N(NC(=O)c2ccncc2)C1=O)=C\c1ccccc1	5999	5.3	-6	-20	-11	9	2
COc1cc(CNCCc2ccccc2)cc(Br)c1OCC(=O)Nc1ccccc1C	4983	4.2	5	-4	0	11	9
COc1ccc(C)cc1-n1c(SCC(=O)NCC2CCCO2)nc2c([nH]c3ccccc32)c1=O (configuration not stated)	4479	2.7	10	4	-2	4	4
O=C(CC1SC(=Nc2ccc(OC(F)F)cc2)N(CCC2=CCCCC2)C1=O)Nc1ccccc1F (configuration not stated)	2082	2.4	3	-17	4	6	7
Cc1sc(NC(=O)C2C3CCC(O3)C2C(=O)O)c(C(=O)OC(C)C)c1-c1ccc(Cl)cc1 (configuration not stated)	5923	10	65	-11	-10	x	x
Cc1ccccc1NC(=S)NNC(=O)c1ccco1	5501	2.1	-2	-11	-3	7	7
COc1ccc(S(=O)(=O)Nc2c(C)n(C)n(-c3ccccc3)c2=O)cc1	16149*	2.5	11	-2	7	3	-6
O=C(Cc1ccc(Cl)c(Cl)c1)Nc1cccc(S(=O)(=O)N2CCOCC2)c1	4879	-16	-7	-20	0	12	4
COc1ccccc1OCC(=O)NN=C1C=C(C)CC1	x	1.8	3	x	x	17	5
C[C@]12c3[nH]c4cc(-c5ccco5)ccc4c3CCN1C(=O)[C@@H](CC(=O)NCc1ccco1)C[C@@H]2C(=O)N1CCOCC1	3861	-0.4	-1	-15	x	-6	13
The results go on:
SMILES	Autofluor counter	Sa RN4220 lethal	ugtP null kill	PrP UTR inh	BJeLR viability	Mtb hypoxia inh	Mtb hypoxia inh growth
CCOc1ccc(N(CC(=O)NCc2ccc(F)cc2)C(=O)CCC(=O)Nc2nccs2)cc1	4098	4.2	6	-13	-14	-4	6
Cc1ccc(NC(=S)NC(=O)c2ccc(-c3ccccc3)cc2)c(C)c1	2211	28	14	-33	-2	x	x
CN(C(=O)CSc1nc2ccccc2c(=O)n1-c1ccccc1Cl)C1CCS(=O)(=O)C1 (configuration not stated)	3091	4.9	5	-13	x	15	10
Cc1ccccc1NC(=O)CSCc1nc(N)nc(Nc2ccccc2C)n1	2071	1.8	0	-9	8	-11	9
Cc1ccccc1OCC(=O)OCC(=O)c1c[nH]c2ccccc12	8924	3.5	-2	-1	x	16	0
CCCCN(CC)C(=O)Cn1cnc2ccc(S(=O)(=O)N3CCC(C)CC3)cc2c1=O	2545	2.8	3	-13	8	-1	6
CCc1nnc(SCC(=O)Nc2ccc(N3CCOCC3)cc2)o1	3144	-7.3	0	-54	1	11	13
CC(=O)Nc1cccc(C(=O)N/N=C/c2ccc(C)o2)c1	5007	x	x	-56	-4	x	x
C/C(=N/NC(=O)c1ccc(C)s1)c1cccc(NC(=O)COc2ccc(Cl)cc2Cl)c1	2720	x	x	-25	-6	x	x
COCOc1ccc(/C=C/C(=O)c2c(O)cc(OCOC)cc2OCOC)cc1	4751	17	-2	x	0	x	x
CCOc1ccc(NC(=S)NC(=O)c2c(Cl)c(C)nn2C)c([N+](=O)[O-])c1	2430	8.2	17	-17	4	1	2
CC(C)N1C[C@@]23C=C[C@@H](O2)C(C(=O)OCc2ccccc2)[C@H]3C1=O (some centres not stated)	3394	-18	1	-25	3	x	x
Cc1ccc(OCC(=O)NCC(=O)n2nc(C)cc2C)cc1	4655	5.4	3	-16	6	7	11
Cc1cccc(N(CC(=O)NCC2CCCO2)C(=O)CCC(=O)Nc2cc(C)on2)c1 (configuration not stated)	4516	1.5	1	-11	-1	x	x
Cc1occc1C(=O)N1CCN(c2ncccn2)CC1	2956	-14	-6	4	4	8	4
C(=NN1CCN(Cc2ccccc2)CC1)c1ccc(-c2ccccc2)cc1	x	-1.5	2	x	x	-18	6
Cc1ccc2oc(=O)n(Cc3ccccc3)c2c1	3628	2.8	3	-12	20	1	10
O=C(NN=C1CCCCCC1)c1ccc2c(c1)OCO2	4429	6.6	4	-19	5	12	7
Cc1cccc(-c2c3c(=O)n(C)c(=O)n(C)c3c3nnc4ccccc4n23)c1	4129	1.0	2	-19	x	-2	9
CCOC(=O)Cc1nnc(NC(=O)CSc2nnc3c(n2)[nH]c2ccccc23)s1	2586	x	x	-15	-10	x	x
CC(C)Oc1ccc(C2CCC(=O)NC2=O)cc1 (configuration not stated)	2140	12	-2	-21	1	2	4
COC(=O)c1ccc(OC(=O)c2nn(C)cc2Cl)c(OC)c1	3182	3.4	8	12	0	13	0
Cn1c(SCc2cnc(-c3ccccc3)s2)nnc1C1COc2ccccc2O1 (configuration not stated)	5204	8.7	-1	-9	2	2	-6
CC(C)NC(=O)CSc1ccccc1C(=O)NCc1ccc2c(c1)OCO2	2167	-0.4	-2	-9	1	x	x
COc1cc(OC)c(OC)cc1CNC(=O)c1cc(=O)c2ccccc2o1	5168	1.8	1	-16	3	-9	1
Following part.
SMILES	Autofluor counter	Sa RN4220 lethal	ugtP null kill	PrP UTR inh	BJeLR viability	Mtb hypoxia inh	Mtb hypoxia inh growth
CC(C)CC(C(=O)OCC(=O)Nc1ncc(Cl)cc1Cl)N1C(=O)c2ccccc2C1=O (configuration not stated)	5129	0.1	2	-8	4	x	x
N#CCCn1nc(-c2ccc([N+](=O)[O-])cc2)cc1Nc1ccccc1NC(=O)C(F)(F)F	2022	2.8	-9	-10	8	2	1
CC(C)C(c1nnnn1Cc1ccc(F)cc1)N1CCC(C(N)=O)CC1 (configuration not stated)	2169	x	x	1	-10	x	x
COC(=O)N/N=C/c1ccc(-c2cc(Cl)ccc2Cl)o1	1976	x	x	-17	-6	x	x
C/C(N)=C(/C#N)C(=O)CSc1nc2ccc(C)cc2[nH]1	16421*	2.1	-1	-66	3	1	3
CC1CN(C(=O)CNC(=O)COc2ccccc2)CC(C)O1 (configuration not stated)	3812	4.2	6	-8	x	11	3
CC(C)(C)NC(=O)C(c1ccccc1)N(C(=O)c1ccco1)C1CC1 (configuration not stated)	21553*	1.8	-2	27	-1	0	12
COc1ccc2c(c1)OCC1C2N2C(=O)CN(C)C(=O)[C@@]2(C)C1c1ccccc1 (some centres not stated)	x	3.9	2	x	x	7	7
CC(C)C(C)NC(=O)CSc1nc2scc(-c3ccco3)c2c(=O)n1-c1ccccc1 (configuration not stated)	2348	0.4	18	3	1	x	x
CCN1CCN(C(=O)C=CC(=O)O)CC1	x	2.3	8	x	x	9	13

Of the compounds above, these have bromine.
SMILES	Autofluor counter	Sa RN4220 lethal	ugtP null kill	PrP UTR inh	BJeLR viability	Mtb hypoxia inh	Mtb hypoxia inh growth
O=C(OCc1nnc(-c2ccc(Br)cc2)o1)c1ccco1	4970	-0.5	-4	-11	2	-1	-4
C=CCNC(=O)CC(=O)N/N=C/c1cccc(Br)c1	7169	x	x	-19	2	x	x
O=C1c2ccccc2C(=O)C1c1ccc(Br)cc1	3639	3.7	1	-49	7	8	-4
COc1ccc(-c2nc(N)nc(C)c2Oc2ccccc2Br)c(O)c1	4589	-15	-8	-18	x	x	x
COc1cc(CNCCc2ccccc2)cc(Br)c1OCC(=O)Nc1ccccc1C	4983	4.2	5	-4	0	11	9

Compound activity as filed in PubChem.
